Screening results as filed in PubChem BioAssay.
E coli growth – E. coli growth inhibition, primary screen, OD600; Escherichia coli growth, 23 h; active compounds read low; actives 0.21% (n = 330,000); OD600 absorbance (no concentration beside the values);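 active = OD600 absorbance below the run mean of sample wells minus 3.6 SD, in any replicate, cut at about 0.56 in these data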;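 note: stock transfer was 300 nL into about 60 µL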
Beta2AR agonist – beta2AR agonists driving receptor internalization, primary screen, cell-based, FAP fluorogen, flow cytometry | Beta-2 adrenergic receptor (Homo sapiens), P07550 | Am2.2-beta2AR cells; reference of the scale not given here | response, % (concentration not given with the values) | actives 0.43% (n = 340,000) | AID 504454, 2011;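 active = response above a set limit, near 3 SD of response in nonfluorescent compounds, cut at about 42% in these data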;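 note: stock transfer was 100 nL into about 11 µL; a reference agonist was the positive control; negative values mostly stem from fluorescent compounds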
Target sequence (P07550 whole entry, looked up): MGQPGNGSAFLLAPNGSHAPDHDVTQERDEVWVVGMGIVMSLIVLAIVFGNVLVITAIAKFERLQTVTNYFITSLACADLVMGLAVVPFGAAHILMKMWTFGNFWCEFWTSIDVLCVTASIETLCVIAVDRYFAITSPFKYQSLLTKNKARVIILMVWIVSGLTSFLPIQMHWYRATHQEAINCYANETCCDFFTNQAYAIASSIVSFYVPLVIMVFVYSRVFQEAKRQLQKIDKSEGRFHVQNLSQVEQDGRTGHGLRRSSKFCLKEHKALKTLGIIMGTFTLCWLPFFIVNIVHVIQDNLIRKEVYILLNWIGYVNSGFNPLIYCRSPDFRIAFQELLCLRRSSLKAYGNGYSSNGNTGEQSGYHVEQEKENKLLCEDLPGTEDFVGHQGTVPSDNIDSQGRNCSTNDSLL
HNF4A DNA FP – change in binding of human HNF4A to DNA, primary screen, biochemical, fluorescence polarization, FITC-DNA; Hepatocyte nuclear factor 4-alpha (Homo sapiens), P41235; 1 h; activity change, % at 10 µM; actives 0.3% (n = 360,000); AID 1224865, 2016; in the data active = activity change above about 30%, passing the limit was not always enough;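 note: controls were the assay level and a saturating level of protein; the project sought stronger binding though the title names inhibitors; some compounds called inactive have numbers as strong as hits; positive values seem to mean higher polarization but the record does not say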
Target sequence (P41235 whole entry, looked up): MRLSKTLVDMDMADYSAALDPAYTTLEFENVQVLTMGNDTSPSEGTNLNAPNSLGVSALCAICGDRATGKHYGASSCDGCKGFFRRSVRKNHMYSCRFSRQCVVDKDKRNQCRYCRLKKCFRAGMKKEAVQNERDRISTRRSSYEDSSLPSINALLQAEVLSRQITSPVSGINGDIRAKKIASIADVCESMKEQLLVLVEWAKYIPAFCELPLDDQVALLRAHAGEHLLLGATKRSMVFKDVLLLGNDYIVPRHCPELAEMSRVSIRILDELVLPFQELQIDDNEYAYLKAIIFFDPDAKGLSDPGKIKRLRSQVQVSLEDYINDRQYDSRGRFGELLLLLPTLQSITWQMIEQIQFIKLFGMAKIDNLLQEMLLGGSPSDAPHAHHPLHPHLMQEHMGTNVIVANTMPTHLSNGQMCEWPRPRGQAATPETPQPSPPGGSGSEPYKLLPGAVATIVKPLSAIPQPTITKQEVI
LANA-H2A inh – blockers of LANA interaction with H2A/H2B – biochemical, FP readout, HTS, primary screen | Protein LANA1 (Human herpesvirus 8 type P (isolate GK18)), Q9QR71 | cell-free LANA-H2A/H2B peptide, fluorescence polarization | inhibition, % (concentration not given with the values) | actives 0.6% (n = 320,000); in the data active = inhibition mostly above about 10%, no sharp cut-off; inactive = mostly below about 6.7%;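 note: stock transfer was 7.5 nL into about 10 µL; 0% = median of vehicle wells and 100% = median of positive control wells; one replicate is shown; the record names a cut of 25% in any replicate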
Vif A3G – inhibitors of Vif binding to APOBEC3G peptide, primary screen, biochemical, TR-FRET, GST-Vif 1-94, biotin-A3G peptide, dose response retest (AID 1117319); actives 0.57% (n = 260,000); inhibition, %; hits with a dose series show IC50 in µM; TR-FRET GST-Vif / biotin-A3G peptide binding; higher % means a stronger effect; test concentration not given here; strong numbers were not always called active;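 active = above the screen mean plus three standard deviations and confirmed in dose response; inconclusive = results disagree or hit not tested in dose response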;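 note: Vif residues 1-94 fused to GST binding biotinylated APOBEC3G peptide 110-148; 0% = full assay without inhibitor and 100% = GST in place of GST-Vif; retest series ran down from 100 µM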
UCH37 inh – inhibitors of human UCH37 deubiquitinase, primary screen, biochemical, Ub-AMC cleavage, fluorescence. AID 588478, 2011. actives 0.33% (n = 330,000). inhibition, % (concentration not given with the values). Ubiquitin carboxyl-terminal hydrolase isozyme L5 (Homo sapiens), Q9Y5K5. purified proteasome/UCH37;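 active = mean of two replicates above 20%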;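 note: 0% = compound-free wells with enzyme and 100% = wells lacking proteasome; stock transfer was 100 nL into about 20 µL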
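system = Proteasome-associated human UCH37 deubiquitinase | amount = 0.15 nM proteasome as dispensed | medium = pH 7.4 Tris-HCl (50 mM) with ovalbumin, ATP-MgCl2, DTT | incubation = 30 min preincubation with enzyme, 25 min cleavage at room temperature | detection = AMC fluorescence 355/460 nm | read-out basis = percent inhibition | controls = no-proteasome and no-compound wells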
A1 inh – caspase 3/7 activation in MEF A1-2A-BIM cells, primary screen, A1 inhibitor project, cell-based, luminescence, HTS | Caspase-Glo 3/7 luminescence, 3 h; percent of clofoctol response, vehicle zero | caspase activation, % (concentration not given with the values) | actives 0.066% (n = 330,000) | AID 2462, 2010;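 active = over half of replicate activation scores above 10%, or exactly half above 10 with the replicate mean above 10; inconclusive = replicate mean below 10 yet half the replicates above 10; inactive = over half of replicates below 10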;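 note: wells of about 30 µL received 50 nL stock; many hits fall short of the cut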
* marks the source's active call; other numbers are inactive results; ? = inconclusive; . = no result given; & = joins results of further samples. Rows were taken by chance; overall some 2.1% were active at least once.

SMILES	E coli growth	Beta2AR agonist	HNF4A DNA FP	LANA-H2A inh	Vif A3G	UCH37 inh	A1 inh
CN(CC(=O)Nc1cccc(F)c1)CC(=O)Nc1cccc(S(=O)(=O)N(C)c2ccccc2)c1	0.71	13	-0.1	.	.	6.3	.
O=[N+]([O-])c1ccc(CNCc2cc(Cl)ccc2O)cc1	0.65	1	-1.6	-2.0	.	1.1	0.1
CC1CC(C)CN(C(=O)c2cccc(S(=O)(=O)N(C)c3ccccc3)c2)C1 (stereo unspecified)	0.66	0	2.2	.	-6%	0.4	.
Cc1nn(-c2ccccc2)c(C)c1NC(=O)COC(=O)c1ccc(Cl)c(S(N)(=O)=O)c1	0.66	-6	5.8	0.4	-7%	3.1	0.1
Cc1cc(NC(=O)Cn2ccsc2=N)c([N+](=O)[O-])cc1C	0.69	-1	-1.8	0.3	-5%	2.9	0.4
c1nc(N2CCC3(CC2)OCCO3)c2c3c(sc2n1)CCCC3	0.71	0	-4.7	0.8	2%	1.5	0.7
CCC1CCCCN1C(=O)CSc1nnc(CNC(=O)c2c(F)cccc2Cl)o1 (stereo unspecified)	0.67	-9	5.7	2.6	.	1.6	-0.6
O=C(Nc1cccc(NC(=O)c2cccc(F)c2)c1)c1ccccc1	0.71	10	2.5	-0.8	4%	5.1	-1.0
NC(=O)C1CCN(CC(O)COCc2ccccc2Cl)CC1 (stereo unspecified)	0.61	9	1.7	-2.8	-4%	0.6	1.3
Cc1cccc(NC(=O)CNC(=O)c2ccc3c(c2)OCO3)n1	0.69	-8	-0.6	7.6	12%	-0.9	-0.2
CNC(=S)NCCN1CCOCC1	0.69	5	-1.1	-3.8	4%	0.0	0.3
C[C@@H]1O[C@@H](O[C@@H]2C(=O)c3c(O)cc(O)cc3O[C@H]2c2ccc(O)c(O)c2)[C@H](O)[C@H](O)[C@H]1O	.	1	-5.3	-0.7	.	1.7	0.4
CC(=O)Nc1c(C(=O)N2CCOCC2)sc2nc3c(cc12)COC(C)(C)C3	0.68	3	-1.2	7.1	?	6.1	0.6
CCc1ccccc1NC(=O)CSc1n[nH]c(C)c1[N+](=O)[O-]	0.65	14	2.7	.	1%	2.7	-0.1
COc1ccc(-c2csc3ncnc(N4CCN(S(=O)(=O)c5cccc(F)c5)CC4)c23)cc1	0.71	1	-0.1	2.0	7%	2.2	-0.7
C=CCC[C@@H](Cc1ccc(F)cc1)C(=O)OCCNC(=O)[C@@H](CC=C)CC(=O)N[C@H](CO)Cc1ccccc1	.	2	-1.7	1.8	.	1.4	0.7
O=S(=O)(c1ccc(Cl)s1)N1CCNCC1	0.7	1	1.1	2.4	.	2.2	1.3
COc1ccc(/C=C2/C(=O)N(CC3CCCO3)C(=S)N2C)c(OC)c1 (stereo unspecified)	0.7	-3	1.3	-0.3	1%	0.7	-0.8
COc1cc(CC(=O)Nc2cccc(S(=O)(=O)N(C)c3ccccc3)c2)cc(OC)c1OC	0.66	2	5.0	-5.9	.	1.4	-0.1
C/C(=N\NC(=O)c1nn(C)c(C)c1Br)c1ccc(NC(=O)c2ccccc2F)cc1	.	-8	0.0	4.7	?	.	0.0
CCCCC(=O)Nc1nn(CC)c2nc3c(C)cccc3cc12	0.73	10	2.5	0.2	-5%	-67	0.0
Cc1c2c(nc3ccccc13)CCC(C)C2 (stereo unspecified)	0.61	-11	-0.5	-7.6	6%	3.7	0.4
CCOc1cc(C2CC(=O)NC3=C2C(=O)C(C(=O)OC)C(C)C3)cc(Cl)c1O (stereo unspecified)	0.67	-4	1.1	-4.0	3%	0.8	0.0
COCCn1c(SCC(=O)N2CCOCC2)nc2ccccc2c1=O	0.67	2	-2.0	2.6	.	4.4	1.1
COC(=O)CSc1nc2nc(-c3cccs3)cc(C(F)(F)F)c2c(=O)[nH]1	0.72	4	-0.1	0.5	-11%	-280	0.6
The results go on:
SMILES	E coli growth	Beta2AR agonist	HNF4A DNA FP	LANA-H2A inh	Vif A3G	UCH37 inh	A1 inh
Cc1ccccc1C1CC(c2cccs2)Nc2nnnn21 (stereo unspecified)	0.69	10	0.0	.	-6%	0.4	-0.6
O=C1NNC(=O)C2C3C=CC(C4CC34)C12 (stereo unspecified)	0.64	-7	0.6	-3.5	27%	-0.2	-0.2
COc1cccc(OC)c1C(=O)N1CCN(Cc2ccncc2)CC1	0.77	0	-1.8	1.3	-2%	1.9	0.5
O=C(Cn1cc([N+](=O)[O-])cn1)Nc1ccc(Cn2cc(Br)cn2)cc1	0.66	11	-0.9	-7.6	.	1.7	-0.5
CCCc1nc(C)c2c(=O)[nH]c(-c3cc(S(=O)(=O)N4CCN(CC)CC4)ccc3OCC)nn12	0.65	1	1.5	-3.2	.	-2.1	0.5
Cc1ccc(NC(=O)CN2C(=O)NC(C)(c3ccc(Cl)cc3)C2=O)cc1S(=O)(=O)N1CCOCC1 (stereo unspecified)	0.72	7	-7.4	-2.3	19%	0.4	-0.1
Cc1cccc(NC(=O)NNS(=O)(=O)c2ccc(F)cc2)c1	0.67	11	3.3	6.2	5%	-1.0	-0.5
Cc1ccc(CCNc2ncnc(Cl)c2N)cc1	0.67	-2	0.2	.	-3%	-0.1	.
Cc1ccc(Sc2ccc(N)cc2C#N)cc1	0.69	5	-0.4	-2.7	-10%	-40	-0.5
Clc1cncc(Cl)c1N/N=C/c1ccccc1	.	-8	4.1	-3.6	-12%	.	-2.3
Cc1cc(C)c(NC(=O)NC(=O)C(Cl)(Cl)Cl)c(C)c1	0.68	7	-3.4	-13	.	4.8	0.7
Cc1cc(C)nc(SCCn2c(N3CCCCC3)nc3c2c(=O)n(C)c(=O)n3C)n1	0.72	-17	2.0	-1.7	0%	4.0	-0.4
CC(=O)c1sc2nc(C)c3c(c2c1N)CCCC3	0.67	-5	0.4	0.2	?	-145	-0.3
COCC(=O)Nc1cc(C(=O)Nc2cccc(C)c2C)ccc1Cl	0.71	-5	3.2	-2.4	-5%	1.5	-0.9
O=C(NCc1ccco1)C1CC(=O)N(c2ccc(O)cc2)C1 (stereo unspecified)	0.81	-2	-3.9	-7.0	1%	-1.0	0.5
COc1ccc(NC(=O)COC(=O)CCc2ccccc2)c(OC)c1	0.7	0	0.5	-7.5	.	4.3	1.0
COCCCn1c(=O)c2ccccc2n(Cc2cccc(C)c2)c1=O	0.68	0	-0.8	-0.5	14%	1.5	0.8
CC(C)(C)c1cc(-c2nc(N)nc(N)n2)c(O)c(C(C)(C)C)c1	0.68	4	-4.5	5.1	.	-12	0.5
CCSc1ncc(Cl)c(C(=O)Nc2ccccc2OC)n1	0.69	-68	-2.2	2.1	.	-5.2	-0.2
CCn1c(SCC(N)=O)nnc1-c1ccco1	0.67	-5	-4.3	-0.3	24%	-0.3	0.6
O=C(Nc1ccccc1)N1CCN(c2nc3ccccc3s2)CC1	0.64	-3	-1.5	0.1	-1%	6.2	-0.6
Cc1ccc(S(=O)(=O)Cc2ccc([N+](=O)[O-])cc2)cc1	0.68	-3	4.3	16*	.	-0.4	0.6
COc1ccc(N2C(=O)CC(N3CCN(c4ccccc4OC)CC3)C2=O)cc1 (stereo unspecified)	0.7	9	-2.4	1.1	.	4.4	-0.2
O=C(O)CSc1nc2ccc(Br)cc2[nH]1	0.7	-6	4.0	.	-4%	2.0	.
Cc1ccc(-n2ncc3c2CCCC3NC(=O)CCc2c(C)noc2C)cc1C (stereo unspecified)	0.73	8	0.7	0.5	.	-0.1	0.4
The results go on:
SMILES	E coli growth	Beta2AR agonist	HNF4A DNA FP	LANA-H2A inh	Vif A3G	UCH37 inh	A1 inh
Cc1cccc(-n2c(CCCN3C(=O)c4ccccc4C3=O)nc3ccccc3c2=O)n1	0.77	11	-1.7	.	3%	-1.5	.
CCC(=O)c1cn(CC(=O)NCC2CCCO2)c2ccccc12 (stereo unspecified)	0.63	0	5.1	0.5	-3%	1.1	-0.4
CC(=O)c1c(C)[nH]c(C(=O)CN2C(=O)NC3(CCCCC3)C2=O)c1C	0.66	-7	-0.3	.	3%	1.2	.
CCCCOc1ccc(-c2c(C#N)c(N)nc(SCC(N)=O)c2C#N)cc1	0.76	2	1.1	-5.5	-13%&-60%	-2.1	-0.3
CSc1ccc(NC(=O)N2CC(C)OC(C)C2)cc1 (stereo unspecified)	0.7	3	-3.0	2.9	2%	-0.9	0.2
COCc1nnc(NS(=O)(=O)c2ccc(Cl)cc2)s1	0.64	1	4.0	.	-14%	0.7	.
CCCn1cc(CN2CCC(Cc3ccccc3)(C(=O)OCC)CC2)c(C)n1	0.69	-6	2.1	-1.3	5%	2.6	0.1
CCOC(=O)C1CCN(S(=O)(=O)c2ccc(CN3C(=O)c4cccnc4C3=O)cc2)CC1	0.67	3	-1.3	-1.1	2%	1.2	-0.4
CC(C)(C)Sc1ccc2nc3c(n2c1)CCCC3	0.68	-25	-2.5	5.3	.	-65	-0.8
O=C(NNC(=O)c1ccccc1O)c1ccc(S(=O)(=O)Nc2ccccc2F)cc1	0.67	14	-0.5	1.5	13%	4.9	-4.1
CC(NC(=O)CCC(=O)N1CCN(S(=O)(=O)c2ccc(Cl)cc2)CC1)c1ccccc1 (stereo unspecified)	0.7	7	2.1	2.9	1%	5.9	-0.3
CC(C)C[C@H](CO)Nc1nc(Nc2cccc(Cl)c2)c2ncn(C(C)C)c2n1	.	2	2.3	2.1	-5%	-1.1	-1.3
O=C(NC1CCN(C(=O)NCc2ccccc2)CC1)c1ccc(F)cc1	0.66	0	4.3	-4.2	.	1.4	1.3
CCCn1nnnc1NC(=O)COc1ccc(Cl)cc1C	0.64	6	-0.8	-2.5	-2%	-1.0	-0.1
Cc1cc(C)n(C2CCCCC2OC(=O)CCc2ccccc2)n1 (stereo unspecified)	0.71	4	-5.0	-1.3	.	4.8	-0.4
O=C1CC(c2ccccc2)=Nc2ccccc2N1Cc1ccccc1	0.72	-16	0.1	1.3	.	4.4	0.1
O=[N+]([O-])c1ccc(Cl)cc1Sc1nc2ccccc2o1	0.67	-28	0.3	8.3	6%	2.7	0.1
CCCNC(=O)CNC(=S)N(Cc1cc(OC)c(OC)c(OC)c1)C1CCCC1	0.64	-17	1.1	-0.7	.	3.8	-0.9
CCc1c(-c2ccccc2)[n+](=O)c2c(n1[O-])CCC2	0.7	-1	0.4	-0.9	-4%	4.8	-0.5
CC(=O)c1cccc(NC(=O)C(OC(=O)c2ccccc2NS(=O)(=O)c2cccs2)c2ccccc2)c1 (stereo unspecified)	0.73	6	-2.7	0.8	4%	-6.2	1.5
O=C1NC(=O)C2(CCCCC2C2CCCCC2)N1 (stereo unspecified)	0.65	0	1.0	.	1%	1.3	.
CSCc1c(C(=O)Nc2ccccc2N2CCOCC2)oc2ccccc12	0.68	0	3.5	.	-2%	-4.6	-0.5
Clc1ccc(-c2csc(Nc3cccnc3)n2)cc1	0.67	-11	3.1	0.8	.	2.2	-0.8
